Screens from PubChem BioAssay.
Sa RN4220 lethal – kills Staphylococcus aureus RN4220 | S. aureus RN4220 growth, OD600, 16 h | inhibition, % (test concentration not listed) | 330,000 compounds, 0.33% hits;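 active = z-score of -3 or lower and OD600 up to 0.18 on both plates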;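 note: plate controls were untreated cells for no effect and reference antibiotic for full effect; stock transfer was 100 nL into about 80 µL; one replicate is shown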
PrP 5UTR inh – inhibition of PrP 5' UTR reporter expression | 340,000 compounds, 0.35% hits | inhibition, % (no concentration beside the values) | cell-based PrP 5' UTR mRNA reporter, plate reader | AID 488862;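 active = every replicate at 50% or more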;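 note: 0 = median of the neutral control wells; tested in H4 reporter cells; numbers are from one replicate; inactives centre near -14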
Sa ugtP lethal – growth inhibition of S. aureus ugtP deletion strain | AID 1259309 | S. aureus RN4220 ugtP deletion, OD600 growth, 16 h; some inactives read as strong as hits | 330,000 compounds, 0.54% hits | growth inhibition, % (test concentration not listed);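 active = z-score under -3 and OD600 up to 0.15 on both plates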;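 note: plate controls were untreated wells for no effect and antibiotic for full effect; wells of about 80 µL received 100 nL stock; the first replicate is given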
Mtb hypoxia rep – inhibitors of hypoxia-regulated fluorescent reporter in Mycobacterium tuberculosis; 300,000 compounds, 0.1% hits; AID 1159583; M. tuberculosis hypoxia-regulated fluorescent reporter, fluorescence; fluorescence inhibition, % (concentration not given with the values);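 active = 35 to 45% if threefold the growth effect, above 45% if 1.5-fold the growth effect; inactive = the rest, general growth blockers included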;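 note: wells of about 50 µL received 100 nL stock; 0% = vehicle wells and 100% = reference inhibitor wells; whole bacteria with a GFP reporter of the hypoxia response; strong numbers were not always called active; many hits fall short of the cut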
Bead autofluor – flagged as autofluorescent in microsphere protease counterscreen. fluorescence intensity (concentration not given with the values). compound autofluorescence counterscreen, microsphere flow cytometry; hits give high values. 360,000 compounds, 3.1% hits;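 active = at least 3 SD above the mean of all compounds, about 16000 in these data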;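 note: 100 nL of 1 mM stock went into each well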
BJeLR lethal – kills HRASV12-expressing BJeLR cells | 300,000 compounds, 0.17% hits | BJeLR (HRASV12) viability, CellTiter-Glo ATP luminescence, 48 h; reference of the scale not given here | inhibition, % (no concentration beside the values) | AID 1554;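 active = replicate mean above 50%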;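 note: 50 nL library stock added to about 25 µL; numbers are from one replicate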
Mtb hypoxia rep growth – further read-out of Mtb hypoxia rep, marked with its call; growth inhibition, %; measured here: M. tuberculosis growth (absorbance);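 0% = vehicle and 100% = reference antibiotic; read after six days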
Numbers without * were called inactive; . = not tested or not shown.

Molecule | Mtb hypoxia rep | Sa RN4220 lethal | PrP 5UTR inh | Sa ugtP lethal | Bead autofluor | Mtb hypoxia rep growth | BJeLR lethal
CSc1ccc(-c2nc(CSCC(=O)NC3CC3)c(C)o2)cc1 | -2.7 | -0.2 | -19.8 | 2.9 | 4827 | -13.4 | 5.3
Cc1cccc(C(=O)N/N=C/c2cc(Br)c(Br)o2)c1 | . | . | -28.2 | . | 2454 | . | 14.7
COc1ccc(F)cc1CN1CCN(C(=O)CCC(=O)Nc2nnc(C(C)C)s2)CC1 | 12.6 | -6.2 | -5.2 | -3.0 | 3228 | -22.9 | 1.2
Cc1cc(=O)[nH]c2c(C)cc(S(=O)(=O)N3CCCCC3)cc12 | 10.1 | 0.0 | -32.6 | 11.4 | 5336 | 6.3 | 6.0
CCc1ccc(NC(=O)C(=O)NN=C(C)CC(=O)Nc2ccc(OC)cc2)cc1 | -5.5 | 5.1 | . | 1.6 | . | -3.0 | .
CCCCCOc1ccc(C(=O)CCC(=O)NC(C)c2ccc(S(N)(=O)=O)cc2)cc1 (centres undefined) | 9.6 | 0.9 | -2.7 | 21.2 | 3672 | 11.2 | .
COc1ccc(-n2ccc(=O)c(C(=O)O)n2)cc1 | 5.0 | -1.1 | -6.7 | 7.1 | 2808 | -0.6 | -11.7
Cc1onc(C(=O)Nc2sc3c(c2C#N)CCCC3)c1[N+](=O)[O-] | 13.1 | 21.1 | -24.9 | -9.4 | 2187 | 9.6 | 1.3
Cc1ccc(OCCC(=O)OC(C)C(=O)Nc2c(C)n(C)n(-c3ccccc3)c2=O)cc1 (centres undefined) | 10.7 | 0.4 | -6.0 | 0.1 | 4449 | 2.0 | 0.0
O=C(NCc1nnc(SCC(=O)N2CCc3ccccc32)o1)c1cccs1 | -8.3 | 3.2 | -18.6 | -2.0 | 2630 | 3.6 | -6.1
Cc1ccc(NCc2ccc(Cl)nc2)c(NCc2ccc(Cl)nc2)c1 | -3.7 | -3.7 | -13.1 | -9.8 | 2405 | 6.5 | -7.3
N#Cc1ccc(Oc2cccc(C(=O)O)c2)cc1C#N | 15.4 | 7.0 | -25.3 | -3.3 | 3931 | 15.6 | -15.3
Cc1ccc(OCc2cc(C(=O)N3CCN(CC(=O)NC(C)C)CC3)no2)cn1 | -2.1 | 3.5 | -20.6 | -1.1 | 5125 | -3.2 | -2.9
O=C(OCc1nc2ccccc2[n+]([O-])c1C(=O)c1ccccc1)c1cccnc1 | -9.4 | -1.3 | -18.4 | 0.6 | 3569 | 6.9 | 10.0
N/C(=N\OC(=O)c1ccccc1)c1ccccn1 | 16.5 | 6.0 | -16.5 | 8.2 | 2505 | 5.5 | 1.1
CN(C)CCNc1nc2c(c(=O)[nH]c(=O)n2C)n1CCOc1ccccc1 | -4.4 | 2.8 | -10.4 | 4.1 | 3192 | 1.3 | -3.2
CCS(=O)(=O)Nc1ccc2c(c1)OCO2 | 10.8 | 2.1 | -16.7 | 2.5 | 3527 | -0.3 | 8.1
O=C1Nc2cc(C(=O)NCCCN3CCCC3)ccc2S/C1=C\c1ccccc1 | 12.7 | -3.4 | 2.4 | -1.2 | 7413 | 12.8 | 9.4
C/C(=C\C(=O)c1ccccc1)Nc1ccc(O)cc1 | 1.0 | 10.2 | -92.3 | 18.9 | 10137 | -1.8 | -5.6
CC1CC(C)CN(S(=O)(=O)c2cccc(C(=O)N3CCN(c4ccc(F)cc4)CC3)c2)C1 (centres undefined) | 7.8 | 2.5 | -20.8 | -1.6 | 3466 | 5.1 | .
O=C(O)COc1ccc(C=NNC(=O)c2ccccc2Br)cc1 | 8.4 | 5.2 | . | 9.5 | . | 2.2 | .
CCCCNC(=O)COC(=O)CNC(=O)c1cc(Cl)cc([N+](=O)[O-])c1 | 16.1 | 3.8 | -11.9 | 3.7 | 4685 | 6.3 | -4.2
O=C(NCc1ccco1)c1ccccc1NS(=O)(=O)c1ccc2c(c1)OCCO2 | . | 3.7 | -4.1 | -0.4 | 2342 | . | 5.9
O=C(Nc1c(F)cc(F)cc1Br)c1cc(S(=O)(=O)N2CCN(c3ccccn3)CC2)ccc1F | 7.7 | 6.0 | -19.1 | -1.2 | 3128 | 9.0 | 7.8
Cc1ccccc1N1CC(O)(c2cccs2)[N+]2=C1CCCC2 (centres undefined) | 9.3 | 0.4 | -52.3 | 16.9 | 3910 | 4.2 | .
COc1ccccc1OCC(=O)N1CCCC(Nc2ccc(F)c(F)c2)C1 (centres undefined) | 12.4 | 2.3 | -12.1 | -1.4 | 5522 | 4.9 | -7.0
Cc1cc(C)c(N2C(=O)C3C4CC(=O)C(c5ccccc54)C3C2=O)c(C)c1 (centres undefined) | -8.7 | 3.7 | -8.0 | 8.5 | 4429 | 0.2 | 4.0
C=CCNC(=S)NNC(=O)c1cccnc1 | 0.9 | 0.3 | -14.0 | 3.0 | 3125 | 10.4 | 4.0
CC(=NNc1nc(N)cc(Cl)n1)c1ccc(F)cc1 | 14.1 | 9.6 | . | 2.8 | . | 0.0 | .
O=C(N/N=C/c1cccc([N+](=O)[O-])c1)C1COc2ccccc2O1 (centres undefined) | . | . | -8.0 | . | 4689 | . | 3.6
O=C(CSc1nc2ccccc2c2c1CCCC2)N1CCOCC1 | 14.7 | 4.0 | -16.6 | -0.9 | 6688 | -0.8 | -5.5
COC(=O)c1ccc(NC(=O)C2C3CCC(C3)C2C(=O)O)cc1 (centres undefined) | . | 2.4 | -7.8 | 3.5 | 2302 | . | 1.1
O=C(Nc1cccc2nsnc12)c1ccc(-c2cccc(Cl)c2)o1 | 3.2 | 14.1 | -14.5 | -14.2 | 2839 | 6.7 | .
Cc1nn(-c2ccccc2)c2sc(-c3nnc(SCC(=O)O)o3)cc12 | -7.8 | 9.1 | -7.9 | -3.4 | 10674 | -4.4 | -4.3
COc1ccc(NC(=O)CCC2CCCC2)cc1OC | . | -5.5 | -22.0 | 1.5 | 4740 | . | -4.3
Cc1cccc(N=Nc2c(N)n[nH]c2-c2ccc(Cl)cc2)c1 | 4.5 | -11.5 | -21.6 | -13.6 | 20404* | 0.3 | 0.3
Cc1ccc(-c2nnn(CC(=O)NCCC3=CCCCC3)n2)cc1 | . | -3.0 | -16.1 | 1.3 | 4036 | . | -2.9
O=C(Nc1c2c(nc3c1CCC3)CCCC2)c1ccccn1 | -3.3 | 3.6 | -14.8 | 4.8 | 2502 | 5.6 | -4.7
Cc1cc(NN=Cc2ccc(F)cc2)nc(NCc2ccccc2)n1 | 2.4 | 13.4 | . | -19.3 | . | -7.9 | .
CC1(C)Cc2c(c(N3CCCC3)[nH]c(=S)c2C#N)CO1 | . | 0.8 | . | 1.9 | . | . | 7.4
C=CCNC(=O)NC(=O)c1csc([N+](=O)[O-])c1 | 17.2 | 6.4 | -5.5 | 17.7 | . | 6.0 | -3.8
CCCCN(C(=O)c1cccc(S(=O)(=O)N2CC(C)OC(C)C2)c1)c1c(N)n(CCCC)c(=O)[nH]c1=O (centres undefined) | 5.6 | 0.5 | -18.3 | 2.0 | 4321 | 0.0 | -4.1
COC(=O)[C@@]1(Cc2ccc(F)cc2)C2c3cc(C(=O)N(C)C)n(CCSCCO)c3CC2CN1C(=O)c1ccccc1 (some centres undefined) | -10.5 | 3.2 | . | -1.3 | . | -17.3 | .
COc1cc2c(cc1OC)CN(CC(=O)Nc1ccc(Cl)c(S(=O)(=O)N(C)C)c1)CC2 | . | . | 23.1 | . | 5970 | . | -5.8
O=C1CS(=O)CN1c1ccc(Oc2ccccc2)cc1 (centres undefined) | 18.2 | 2.9 | -19.7 | 4.1 | 2618 | 6.2 | 0.9
CC[C@@]12C(=O)N(c3cccc(F)c3)C(=O)N1[C@H](c1ccc(F)cc1)[C@@H]1C(=O)N(C3CCCCC3)C(=O)[C@@H]12 | . | . | -21.6 | . | 3344 | . | 15.3
COc1ccc(Cl)cc1NC(=O)c1cnc2sccn2c1=O | 4.5 | 2.5 | -31.2 | 5.7 | 6294 | 7.1 | -1.3
COc1ccc(OC)c(C=NNC(=O)c2cc3c(ccc4ccccc43)o2)c1 | -6.4 | -0.9 | . | -9.5 | . | 2.4 | .
COc1ccc(C(=O)N2CCCC(CNC(=O)c3ccccc3Cl)C2)o1 (centres undefined) | 9.9 | 2.8 | -18.2 | 4.3 | 5013 | 0.4 | -1.1
CCOc1ccccc1NC(=O)CCCN1C(=S)NC(C)(C)CC1C (centres undefined) | -1.7 | 6.2 | 6.7 | 4.1 | 8139 | -4.4 | -5.9

Exported with values under each structure: entries from further up
Under each structure: Mtb hypoxia rep | Sa RN4220 lethal | PrP 5UTR inh | Sa ugtP lethal | Bead autofluor | Mtb hypoxia rep growth | BJeLR lethal
O=C(Nc1c2c(nc3c1CCC3)CCCC2)c1ccccn1
  -3.3 | 3.6 | -14.8 | 4.8 | 2502 | 5.6 | -4.7
Cc1cc(NN=Cc2ccc(F)cc2)nc(NCc2ccccc2)n1
  2.4 | 13.4 | . | -19.3 | . | -7.9 | .
CC1(C)Cc2c(c(N3CCCC3)[nH]c(=S)c2C#N)CO1
  . | 0.8 | . | 1.9 | . | . | 7.4
C=CCNC(=O)NC(=O)c1csc([N+](=O)[O-])c1
  17.2 | 6.4 | -5.5 | 17.7 | . | 6.0 | -3.8
CCCCN(C(=O)c1cccc(S(=O)(=O)N2CC(C)OC(C)C2)c1)c1c(N)n(CCCC)c(=O)[nH]c1=O (centres undefined)
  5.6 | 0.5 | -18.3 | 2.0 | 4321 | 0.0 | -4.1
COC(=O)[C@@]1(Cc2ccc(F)cc2)C2c3cc(C(=O)N(C)C)n(CCSCCO)c3CC2CN1C(=O)c1ccccc1 (some centres undefined)
  -10.5 | 3.2 | . | -1.3 | . | -17.3 | .
COc1cc2c(cc1OC)CN(CC(=O)Nc1ccc(Cl)c(S(=O)(=O)N(C)C)c1)CC2
  . | . | 23.1 | . | 5970 | . | -5.8
O=C1CS(=O)CN1c1ccc(Oc2ccccc2)cc1 (centres undefined)
  18.2 | 2.9 | -19.7 | 4.1 | 2618 | 6.2 | 0.9
CC[C@@]12C(=O)N(c3cccc(F)c3)C(=O)N1[C@H](c1ccc(F)cc1)[C@@H]1C(=O)N(C3CCCCC3)C(=O)[C@@H]12
  . | . | -21.6 | . | 3344 | . | 15.3

Further compounds.
Molecule | Mtb hypoxia rep | Sa RN4220 lethal | PrP 5UTR inh | Sa ugtP lethal | Bead autofluor | Mtb hypoxia rep growth | BJeLR lethal
C=C(C)c1cccc(C(C)(C)NC(=O)Nc2ccc(C(C)=O)cc2)c1 | -8.3 | 2.4 | -9.3 | 71.0 | 2603 | 2.3 | -3.5
O=C(CNC(=O)c1ccccc1Cl)N/N=C/c1ccc2c(c1)OCO2 | . | . | -32.6 | . | 3444 | . | -1.9
CCSc1nnc(NC(=O)C(C)(C)C)s1 | . | -2.9 | -26.9 | 7.0 | 3971 | . | 6.2
COc1ccc(NC(=O)C2CC(c3c(F)cccc3Cl)=NO2)cc1 (centres undefined) | -4.1 | 2.6 | -28.4 | 8.3 | 3556 | -0.5 | -2.6
COc1ccc(C(C(=O)NC(C)(C)C)N(Cc2cccnc2)C(=O)CCC(=O)Nc2cc(C)on2)cc1 (centres undefined) | -2.4 | 2.4 | -5.3 | 4.8 | 5533 | 0.6 | -2.1
CCCC(C(=O)NC1CCCC1)N(CCN(CC)CC)C(=O)c1snc(C(N)=O)c1N (centres undefined) | 2.1 | 1.3 | -9.8 | 7.2 | 3058 | -2.8 | 1.0
Cc1ccc(O)c(C(=O)c2cnn(C(=O)COc3ccc(Cl)cc3)c2)c1 | 8.8 | 4.3 | -13.4 | 11.2 | 2021 | 4.3 | -11.3
COCCCn1c(-c2ccc(OC)cc2)cc(C(=O)NC2CCCCCCC2)c1C | 5.8 | 3.5 | -14.1 | -13.8 | 2099 | 2.4 | 5.1
OCCC1CN(Cc2cccc(-c3ccco3)c2)CCN1Cc1ccsc1 (centres undefined) | 3.3 | 3.6 | -11.4 | 0.1 | 2388 | 5.9 | -1.1
CCOc1ccc2[nH]c3c(NCCCOC)ncnc3c2c1 | -5.3 | -3.7 | -9.4 | -8.8 | 3774 | 3.2 | 0.4
